YopH PTP inh – inhibitors of Yersinia enterocolitica YopH tyrosine phosphatase | fluorescence Ex485/Em525 | inhibition, %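 (about 10 µM by stock and volumes)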 | 0.16% of 140,000 active | AID 898;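 active means inhibition of 50% or more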;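 further: controls were vehicle for no effect and minimum signal wells for full effect; inactives centre near -20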
Mtb growth – M. tuberculosis H37Rv growth inhibitors, H37Rv strain (AID 1626) | inhibition, % at 10 µM, or IC50 in µM where a hit was titrated | 0.95% of 220,000 active | M. tuberculosis H37Rv growth inhibition; higher % means a stronger effect;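 active means confirmed in a dose series; inconclusive means inhibition above 80% but not taken into the dose series; inactive means below 80% or under 30% at every dose of the series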;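 further: bacteria incubated seven days before Alamar blue readout; 0% = bacteria only wells and 100% = bacteria with antibiotic wells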
RecA splice inh – blocks M. tuberculosis RecA intein splicing; P9WHJ3; cell-free RecA intein splicing, fluorescence; inhibition, %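 (about 9 µM by stock and volumes)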; 0.75% of 290,000 active; AID 2221; in the data active means inhibition above about 30%; inconclusive means no clear call, values can overlap the other calls;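 further: 0% = vehicle wells and 100% = reference inhibitor control wells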
Target sequence (P9WHJ3 whole entry, looked up, canonical isoform): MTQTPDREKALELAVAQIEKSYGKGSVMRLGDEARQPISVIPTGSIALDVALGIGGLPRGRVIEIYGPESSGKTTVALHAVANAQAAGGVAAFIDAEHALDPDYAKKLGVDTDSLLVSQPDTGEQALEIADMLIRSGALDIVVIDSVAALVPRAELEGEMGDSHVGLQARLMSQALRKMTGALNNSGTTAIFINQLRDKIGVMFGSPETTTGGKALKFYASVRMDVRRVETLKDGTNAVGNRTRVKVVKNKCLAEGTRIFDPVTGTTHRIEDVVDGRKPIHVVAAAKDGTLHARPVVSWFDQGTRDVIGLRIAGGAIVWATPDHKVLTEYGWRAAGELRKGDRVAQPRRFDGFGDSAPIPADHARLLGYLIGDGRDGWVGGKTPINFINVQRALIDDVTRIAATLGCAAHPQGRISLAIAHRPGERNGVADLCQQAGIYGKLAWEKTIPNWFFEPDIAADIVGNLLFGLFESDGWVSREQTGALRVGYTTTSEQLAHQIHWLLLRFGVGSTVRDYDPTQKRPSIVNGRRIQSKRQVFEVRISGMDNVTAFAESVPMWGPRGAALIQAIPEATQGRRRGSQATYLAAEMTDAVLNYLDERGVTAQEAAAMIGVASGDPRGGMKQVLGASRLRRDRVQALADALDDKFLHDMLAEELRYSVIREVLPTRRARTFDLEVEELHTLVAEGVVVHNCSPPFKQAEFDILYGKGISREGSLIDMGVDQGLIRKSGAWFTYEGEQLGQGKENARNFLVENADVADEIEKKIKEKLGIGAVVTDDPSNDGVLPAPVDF
Mtb bLac sens – beta-lactam sensitization of Mtb H37Rv. M. tuberculosis H37Rv growth with meropenem, percent inhibition; hits of this screen are not shown here. inhibition, % at 25 µM. 0.27% of 330,000 active. AID 434955;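 active means about 74% or more and at least 40 points above the plate without the antibiotic, then above 30% in a dose series; inconclusive means first-round hits that could not be retested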;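 further: growth measured after seven days incubation then overnight dye step; 0% = bacteria only wells and 100% = bacteria with antibiotic; twin plates without the antibiotic show which effects depend on it; some results filed as inactive read as strong as hits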
Arbovirus inh – arbovirus infection inhibition. inhibition, % at 10 µM. arbovirus infection cell-based antiviral screen. AID 1251. 0.37% of 200,000 active;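 active means inhibition from about 30%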;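 further: bluetongue infection of BSR cells; cell survival read as ATP light after 72 h; 0% = infected wells without compound and 100% = uninfected wells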
Arbovirus inh repeat – further read-out of Arbovirus inh, marked with its call; inhibition, %; measured here: 10K subset replicate screen; many hits read low in the repeat;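 first of two repeat runs on a subset; 0% = infected and 100% = uninfected wells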
Numbers without * were called inactive; ? = inconclusive; . = not tested or not shown.

SMILES	YopH PTP inh	Mtb growth	RecA splice inh	Mtb bLac sens	Arbovirus inh	others
CCN(CC)S(=O)(=O)c1cccc(NC(=O)c2cc3ccccc3o2)c1	18	-6%	.	0	-3
COc1ccc(C(=O)Oc2c(C)occc2=O)cc1OC	-44	4%	0.5	-11	10
CCN(CC)CCN1C(=O)c2ccccc2NC1c1ccc(Br)cc1 (stereo not given)	.	-3%	-7.1	-7	-28
CC(=O)Nc1ccc(C(=O)NCC(=O)OCc2ccccc2F)cc1	.	8%	-1.0	-4	5
O=C(O)C1(S(=O)(=O)CCC(F)=C(F)F)CC1	.	-3%	0.2	-2	7
Cc1ccc(CN(Cc2ccccn2)C(=O)Nc2ccc(C)c(C)c2)cc1	.	.	5.8	9	.
CCOC(=O)CSc1nc2ccccc2n2c(C)nnc12	.	.	0.9	-3	.
CCc1cccc2c(C(=O)COC(=O)c3c(C)noc3C)c[nH]c12	-28	-1%	2.4	3	-8
COC(=O)c1c(C(=O)OC)c(C)n(Cc2ccco2)c1C	1	8%	0.2	.	8
Cc1nn(C)c(C)c1S(=O)(=O)N(CC(=O)NCc1cccs1)c1ccc(C(C)C)cc1	-25	-1%	.	-6	-3	Arbovirus inh repeat=6
CNS(=O)(=O)c1cccc(C(=O)OCC(=O)Nc2ccc(-c3nc4ccc(C)cc4s3)cc2)c1	.	5%	-1.0	43	-9
O=C(NC1CCCC1)C(c1ccc(F)cc1)N(C(=O)c1csnn1)c1ccccc1F (stereo not given)	.	.	-1.3	-2	.
COc1ccccc1Nc1nc(C)cc(C)n1	.	.	0.1	-3	.
CCOc1ccc2nc(N3CCC(C(=O)N4CCN(C(=O)c5ccco5)CC4)CC3)sc2c1	-2	2%	-2.7	23	-3	Arbovirus inh repeat=9
Cc1nc(SCC(=O)N(C)C2CCCCC2)[nH]c(=O)c1Cc1ccccc1	6	-12%	3.1	6	1
COc1ccc(-n2c(C)cc(-c3csc(N)n3)c2C)cc1	-8	4%	6.8	25	-13
Cc1ccc(N2Cc3ccccc3C2=O)cc1	.	.	0.0	6	.
Cc1cc(C)cc(OCC(=O)OCC(=O)N2CC(=O)Nc3ccccc32)c1	.	1%	2.1	8	1
O=[N+]([O-])c1ccc(Cl)cc1Sc1ccccn1	-10	7%	0.4	6	-8
Cc1nn(CC(=O)N2CCOCC2)c(=O)c2ccccc12	-43	-3%	0.7	-6	5
O=C(c1ccc(-n2cccn2)cc1)N1CCc2c([nH]c3ccccc23)C1c1ccccn1 (stereo not given)	.	4%	3.8	24	-15
CC1CN(S(=O)(=O)c2cccc(C(=O)Nc3ccc(S(=O)(=O)NC4=NCCCCC4)cc3)c2)CC(C)O1 (stereo not given)	.	.	-1.5	-8	.
c1ccc(COc2cccc(CNCc3cccs3)c2)cc1	2	.	2.8	8	-2
CCN(CC)c1nc(=S)nc(NC(C)(C)C)[nH]1	-48	2%	6.7	-7	7
Cn1c(=O)c(C(=O)COC(=O)c2cc(-c3ccccc3)nc3ccccc23)c(N)n(Cc2ccccc2)c1=O	-25	.	-1.5	1	21
CCN(CCn1cccn1)Cc1nc(-c2ccccc2)no1	.	7%	0.7	0	-1
CC1=C(C(=O)OC2CCCCC2)C(c2cccs2)n2c(nc3ccccc32)N1 (stereo not given)	-13	57%	0.5	59	3
Cc1ccc(C)c(N2CCN(c3ccncc3N)CC2)c1	.	0%	2.8	64	.
COc1ccc(Cc2nnc(SCC(=O)NCCc3ccccc3)o2)cc1	-31	?	-0.5	99	9
O=C(CC1SCCNC1=O)Nc1ccc(Cl)cc1 (stereo not given)	.	-5%	-6.2	-4	7
O=C1c2ccccc2C(=O)C1C1=Nc2ccccc2NC(c2ccccc2)C1 (stereo not given)	.	9%	-3.6	1	-9
CCOc1ccc(C(=O)N(C)C2CCS(=O)(=O)C2)cc1 (stereo not given)	-7	-2%	-0.1	-11	12
O=C(O)CNC(=O)c1ccc(NC(=O)/C(=C/c2cccc([N+](=O)[O-])c2)NC(=O)c2ccco2)cc1	.	.	1.0	-7	.
Cc1cc(NC(=O)CCC(=O)N(Cc2ccccc2)C(C(=O)NC2CCCC2)c2ccco2)no1 (stereo not given)	.	.	-0.1	-2	.
CCOc1ccc(NC(=O)CN(C)C(=O)c2ccc(COc3ccccc3)o2)cc1OCC	.	.	0.7	-4	.
CCOc1ccccc1NS(=O)(=O)c1ccc2c(c1)N(C)CCO2	.	.	-2.7	0	.
Cc1ccc(/C=C2/Sc3ccc(C(=O)NCCN4CCOCC4)cc3NC2=O)cc1	.	.	-0.8	1	.
Cc1cc(C(=O)NC2CCCN(Cc3ccc(Cl)cc3)C2)no1 (stereo not given)	.	.	4.0	?	.
O=C1CC(c2ccc3c(c2)OCO3)c2cc3c(cc2N1)OCCO3 (stereo not given)	9	1%	0.3	0	-27
CC1CCC(NC(=S)NCCN(C)C)CC1 (stereo not given)	.	-2%	0.6	1	2

Ordered by number of heavy atoms (ascending): part of the list above
SMILES	YopH PTP inh	Mtb growth	RecA splice inh	Mtb bLac sens	Arbovirus inh	others
O=C(O)C1(S(=O)(=O)CCC(F)=C(F)F)CC1	.	-3%	0.2	-2	7
O=[N+]([O-])c1ccc(Cl)cc1Sc1ccccn1	-10	7%	0.4	6	-8
CCOC(=O)CSc1nc2ccccc2n2c(C)nnc12	.	.	0.9	-3	.
c1ccc(COc2cccc(CNCc3cccs3)c2)cc1	2	.	2.8	8	-2
Cc1cc(C(=O)NC2CCCN(Cc3ccc(Cl)cc3)C2)no1 (stereo not given)	.	.	4.0	?	.
O=C1CC(c2ccc3c(c2)OCO3)c2cc3c(cc2N1)OCCO3 (stereo not given)	9	1%	0.3	0	-27
Cc1ccc(CN(Cc2ccccn2)C(=O)Nc2ccc(C)c(C)c2)cc1	.	.	5.8	9	.
CC1=C(C(=O)OC2CCCCC2)C(c2cccs2)n2c(nc3ccccc32)N1 (stereo not given)	-13	57%	0.5	59	3
Cc1ccc(/C=C2/Sc3ccc(C(=O)NCCN4CCOCC4)cc3NC2=O)cc1	.	.	-0.8	1	.
CCOc1ccc(NC(=O)CN(C)C(=O)c2ccc(COc3ccccc3)o2)cc1OCC	.	.	0.7	-4	.
CNS(=O)(=O)c1cccc(C(=O)OCC(=O)Nc2ccc(-c3nc4ccc(C)cc4s3)cc2)c1	.	5%	-1.0	43	-9
Cc1cc(NC(=O)CCC(=O)N(Cc2ccccc2)C(C(=O)NC2CCCC2)c2ccco2)no1 (stereo not given)	.	.	-0.1	-2	.
CC1CN(S(=O)(=O)c2cccc(C(=O)Nc3ccc(S(=O)(=O)NC4=NCCCCC4)cc3)c2)CC(C)O1 (stereo not given)	.	.	-1.5	-8	.

(listing goes on)
SMILES	YopH PTP inh	Mtb growth	RecA splice inh	Mtb bLac sens	Arbovirus inh	others
Cc1ccccc1SCC(=O)OCC(=O)N(C)c1c(N)n(Cc2ccccc2)c(=O)[nH]c1=O	.	.	1.8	-10	.
CCOc1ccc(-c2n[nH]c(=S)n2Cc2ccccc2)cc1	.	.	-1.1	0	.
CSc1ccc(CNCCCN(C)C)cc1	-20	-1%	14	-1	-11
Fc1ccc(-n2c(Cn3nnc4ccccc43)n[nH]c2=S)cc1	.	-9%	-3.8	-9	5
CCc1cccc2c(C(=O)COC(=O)c3nn(C)c(=O)c4ccccc34)c[nH]c12	-14	.	-2.9	0	10
Cc1ccc(CNC(=O)CS(=O)(=O)CC(=O)O)cc1	-2	-5%	-0.6	-7	10
COc1ccc(C(=O)NC(C)c2nnc(SCC(=O)NC3CCCCC3)n2C)cc1 (stereo not given)	.	.	0.8	1	.
N#Cc1cccc(NC(=O)CC2CCCC2)c1	.	.	-0.7	7	.
COc1ccc(OC)c(-c2csc(N(CC3CCCO3)C(=O)C3CCCCC3)n2)c1 (stereo not given)	.	3%	7.7	29	-7
Cn1c(=O)c2c(SCc3cccnc3)nc(C3CC3)nc2n(C)c1=O	-30	2%	-2.2	-12	-9	Arbovirus inh repeat=-10
CCOC(=O)C1CCCCN1Cc1ccc(OC)c(OC)c1OC (stereo not given)	-23	-2%	-1.2	-1	3
O=C(c1ccc(CS(=O)(=O)c2ccccc2)o1)N1CCC2(CC1)OCCO2	-20	-3%	1.7	-4	2
O=C(NC1CCN(C(=O)Nc2cccc(Cl)c2)CC1)c1ccccc1	.	.	-3.6	-2	.
O=C(Nc1ccccc1C(=O)O)c1ccccc1	-1	.	-1.2	8	10
CCOC(=O)C1=C(N)n2c(s/c(=C\c3ccncc3)c2=O)=C(C(=O)OCC)C1c1ccncc1 (stereo not given)	.	-3%	1.1	-8	-5
CCC(C(=O)O/N=C(\N)c1ccccc1)c1ccccc1 (stereo not given)	10	3%	8.0	-6	-8
CN1CCN(CCc2nc3cc(NC(=O)c4ccco4)ccc3n2C)CC1	.	-3%	0.4	15	.
CCCn1c(SCC(=O)c2cc(C)ccc2C)n[nH]c1=O	4	0%	-0.7	-10	0
CCC1CCC(N2CCN(c3cccc(OC)c3)CC2)CC1 (stereo not given)	.	.	-1.8	0	.
Cc1ccc(N2CN(Cc3ccco3)CNC2=S)cc1	.	2%	-1.0	-11	-3
CC(C)(C)NC(=O)CN(C(=O)CS(=O)CC(=O)Nc1ccc(F)cc1)c1ccc2c(c1)OCCO2 (stereo not given)	.	0%	5.6	8	2
Cc1ccccc1CSCC(Nc1ccc(C(=O)O)cc1[N+](=O)[O-])C(=O)O (stereo not given)	-41	-10%	1.9	-3	7
Cc1cc(C(=O)Nc2c(F)c(F)c(F)c(F)c2F)n(-c2ccccc2)n1	.	6%	1.2	3	6
CCCCc1nc(C(N)=O)c2[nH]c(=O)n(-c3ccccc3F)c2n1	.	.	2.5	?	.
CCOc1ccccc1C(=O)N[C@H](C(=O)Nc1ccc(OC)c(S(=O)(=O)N2CCOCC2)c1)C(C)C	.	-3%	-2.0	0	11
O=C(CN1CCCCCC1)N/N=C/c1cccc(Cl)c1Cl	-20	4%	-1.8	4	2
CCc1cc2c(NCC3CCCO3)nc(C)nc2s1 (stereo not given)	-15	-5%	-0.7	1	10
CCn1c2ccccc2c2cc(NC(=O)CSc3nnc(-c4cccc(C)c4)o3)ccc21	-17	49%	9.7	99	-5
Cc1ccc(NC(=O)CCC(=O)c2cccs2)c(Br)c1	.	.	-0.7	-11	.
CC(=O)N1c2ccc(S(=O)(=O)NCC3CCC(C(=O)Nc4ccc(C)cn4)CC3)cc2CC1C (stereo not given)	.	.	-0.6	-8	.
O=C(c1cccs1)N1CCN(c2ncc(C(F)(F)F)cc2Cl)CC1	.	.	6.6	1	.
CCCOc1ccc(N2CC(C(=O)Nc3ccc(N4CCOCC4)cc3)CC2=O)cc1 (stereo not given)	.	1%	-1.6	1	-6
Cc1cccc(C(=O)N/N=C/c2ccc3c(c2)OCO3)n1	8	-9%	-2.4	8	-8
CCOC(=O)c1ccc(N2C(=O)c3n[nH]c(C)c3C2c2ccc(O)cc2)cc1 (stereo not given)	-8	-7%	3.4	7	-6
O=C(COC(=O)c1ccccc1C(=O)c1ccc(Cl)cc1)NCC1CCCO1 (stereo not given)	.	-1%	0.2	4	11
CCOC(=O)N1CCN(C(=O)CCCCCn2c(=S)[nH]c3cc4c(cc3c2=O)OCO4)CC1	.	-2%	0.2	-1	-7
Cc1cccc(-c2nc(C#N)c(NCc3ccco3)o2)c1	.	6%	-0.4	8	.
CCOc1cccc(-c2c(C(=O)N/N=C/c3ccsc3)nnn2-c2nonc2N)c1	.	.	-0.8	8	.
COc1cc(N=CC2=C(O)c3ccccc3C2=O)cc(OC)c1	-20	76%	4.2	-4	-16
CC(CCc1ccccc1)NCc1ccc(Cl)cc1Cl (stereo not given)	.	.	2.4	-4	.
CCOC(=O)C1=C(C)NC(=O)NC1C1CC=CCC1 (stereo not given)	-24	2%	-2.2	-5	-1
Cc1cccc(NCc2nc(-c3ccccc3)no2)c1	-45	12%	4.9	14	-6	Arbovirus inh repeat=7
O=C(COC(=O)/C=C/c1ccc2c(c1)OCO2)NC1CCS(=O)(=O)C1 (stereo not given)	.	11%	2.0	2	.
CCOC(=O)C1=NOC2COC3(CCN(c4ncccn4)CC3)OCC12 (stereo not given)	.	-9%	-1.6	1	8
COc1cc(/C=C/C(=O)OCC(=O)N2CC3(C)CC2CC(C)(C)C3)ccc1O (stereo not given)	-37	9%	4.8	35	11

High-throughput results: PubChem BioAssay, several laboratories

The list is partial; count on the stated rates, not on these rows.
